CDC25B CDK2 inh – primary biochemical HTRF screen for blockers of M-phase inducer phosphatase 2 binding to CDK2/cyclin A. HTRF CDC25B-CDK2/CyclinA binding, anti-His/anti-Flag; active compounds read high. AID 1259370, 2018. z-score (no concentration beside the values). P30305+P24941. actives 0.72% (n = 94,000);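 note: score is relative to mean and SD of negative controls; strong numbers were not always called active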
TAR Tat displ – TAR RNA-Tat peptide displacers, HIV-1, primary screen, biochemical, FRET, FAM/TAMRA-labeled Tat | HIV-1 TAR RNA, Tat peptide displacement FRET; active compounds read high | actives 0.6% (n = 100,000) | z-score (test concentration not listed);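 note: score is relative to mean and SD of negative controls; some compounds called inactive have numbers as strong as hits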
Starred values were filed as active, the others as inactive.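 Rule for the calls: active = z-score from 3 up in half or more of its runs; inactive = the rest.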

What do the screens show for `CCOC(=O)N1CCC(NS(=O)(=O)c2ccc3c(c2)NC(=O)C(C)CS3)CC1` (stereo not drawn)?
TAR Tat displ: 1.6

How did Cn1c(=O)c2c(-c3ccc(Cl)cc3)n(CC(=O)O)cc2n(C)c1=O do in these assays?
CDC25B CDK2 inh: -1.5; TAR Tat displ: -1.3

What do the screens show for `CCCCc1nn2c(=O)cc(COC(=O)COc3ccc(C)c(C)c3)nc2s1`?
TAR Tat displ: 0.94

What do the screens show for `O=C(Cn1c(=O)oc2ccccc21)NCc1ccccc1Br`?
CDC25B CDK2 inh: -2.5; TAR Tat displ: 1.2

How did CCCCNC(=O)c1cc2c(s1)-c1ccccc1S(=O)(=O)C2 do in these assays?
CDC25B CDK2 inh: -1.6; TAR Tat displ: 0.7

Results for O=C(CCS(=O)(=O)c1cc2c3c(c1)CCN3C(=O)CC2)N1CCCC1 ?
TAR Tat displ: 1.2

How did CSc1cccc(-n2nnc(-c3nsc(NC(=O)c4cccs4)n3)c2C)c1 do in these assays?
TAR Tat displ: 0.96

What do the screens show for `CCN1CCN(c2nc(N3CCN(Cc4ccccc4)CC3)nc(N)c2[N+](=O)[O-])CC1`?
TAR Tat displ: 1.1

Results for O=C(Cn1c(C(=O)c2ccccc2)nc2ccccc21)c1ccccc1 ?
CDC25B CDK2 inh: -1.6; TAR Tat displ: 0.28

What do the screens show for `CC(C)CNC(=O)Cn1nnc2sc3c(c2c1=O)CCC(C(C)(C)C)C3` (stereo not drawn)?
CDC25B CDK2 inh: -0.96; TAR Tat displ: 1.8

How did O=C(CCCc1nc(-c2ccc(Cl)cc2)no1)NC1CCCC1 do in these assays?
CDC25B CDK2 inh: -0.38; TAR Tat displ: 0.28

What do the screens show for `N#Cc1c(NC(=O)c2noc3c2CCCCC3)sc2c1CCC2`?
CDC25B CDK2 inh: -0.63

Results for CC(C)N1CC23C=CC(O2)C(C(=O)OCc2ccccc2)C3C1=O (stereo not drawn) ?
CDC25B CDK2 inh: -0.95; TAR Tat displ: 0.26

What do the screens show for `CCCc1nnc2[nH]c(=O)n(C)c(=O)c2n1`?
CDC25B CDK2 inh: 0.32; TAR Tat displ: 1.5

How did O=C(NNc1ccccc1)Nc1cc(Cl)sc1Cl do in these assays?
CDC25B CDK2 inh: -0.56

How did O=S(=O)(c1cccc2nsnc12)N1CCC(c2ccncc2)CC1 do in these assays?
TAR Tat displ: 0.08

How did COc1cc2c(cc1OC)C1C(C(=O)NC3CCCc4ccccc43)c3ccccc3C(=O)N1CC2 (stereo not drawn) do in these assays?
CDC25B CDK2 inh: 0.4; TAR Tat displ: -0.35

Results for O=C1NCCOc2ccc(S(=O)(=O)Nc3ccc(F)c(Cl)c3)cc21 ?
TAR Tat displ: 1.2

Results for O=C(c1nc(S(=O)(=O)Cc2ccc(F)cc2)ncc1Cl)N(Cc1ccccc1)c1ccccn1 ?
CDC25B CDK2 inh: -0.94; TAR Tat displ: 2.4

What do the screens show for `CC1CCN(CC(C)OC(=O)C2COc3ccccc3O2)CC1` (stereo not drawn)?
CDC25B CDK2 inh: 1.3; TAR Tat displ: 0.73

Results for O=S1(=O)C[C@H](NCc2ccccc2F)[C@@H](S(=O)(=O)c2cccs2)C1 ?
CDC25B CDK2 inh: -0.6; TAR Tat displ: -1.4

What do the screens show for `NS(=O)(=O)c1ccc(C(=O)O)cc1`?
CDC25B CDK2 inh: -1.4

What do the screens show for `O=C1c2ccccc2C(=O)N1Cc1cccnc1`?
CDC25B CDK2 inh: 0.64

What do the screens show for `O=C(N/N=C\c1ccccc1O)c1cc(-c2ccccc2)nc2ccccc12`?
CDC25B CDK2 inh: -0.88

What do the screens show for `C#CCOc1ccc(C2CC(=O)Nc3c2c(C)nn3-c2nncc(-c3ccc(OC)cc3)n2)cc1` (stereo not drawn)?
CDC25B CDK2 inh: 1.9; TAR Tat displ: 5

What do the screens show for `CC(C)CC(=O)Nc1nc2c(s1)CC(C(C)(C)C)CC2` (stereo not drawn)?
CDC25B CDK2 inh: -0.03; TAR Tat displ: 0.91

How did Cc1ccc(C2CC(=O)Nc3nc(SCc4ccccc4F)[nH]c(=O)c32)c(C)c1 (stereo not drawn) do in these assays?
CDC25B CDK2 inh: -2.1; TAR Tat displ: 0.5

How did CN1C(=O)c2[nH]nc(-c3ccccc3)c2C1c1cccnc1 (stereo not drawn) do in these assays?
CDC25B CDK2 inh: -0.92; TAR Tat displ: -0.24

How did O=C(c1cccs1)N1CCN(C(=O)c2ccco2)c2ccccc2C1 do in these assays?
CDC25B CDK2 inh: 0.58

Results for COC(=O)c1sc2ccccc2c1NC(=O)c1ccc(Cl)s1 ?
CDC25B CDK2 inh: -3.5

Results for C=CCOC(=O)c1sc(NC(=O)c2cc(-c3cccs3)on2)nc1C ?
CDC25B CDK2 inh: -1.6; TAR Tat displ: 0.73

Results for O=C(Nc1ccc(F)cc1)N1CCSc2ncccc21 ?
TAR Tat displ: 1.9

What do the screens show for `OCCNc1ncnc2ccccc12`?
CDC25B CDK2 inh: -3; TAR Tat displ: 1.1

How did CC(C)N1CCn2c(nc3cc(NC(=O)C4CCCCC4)ccc32)C1 do in these assays?
CDC25B CDK2 inh: -2.5; TAR Tat displ: -8.9

Results for Cc1cccc(NS(=O)(=O)c2ccc(-c3n[nH]c(C)c3C)s2)c1C ?
TAR Tat displ: 1.1

What do the screens show for `CCCCCOC(=O)Cn1c2ccccc2c2nc3ccccc3nc21`?
CDC25B CDK2 inh: -1.1; TAR Tat displ: 2.8

Results for Fc1ccc(-c2nnc3c4cc5c(cc4n(Cc4ccccc4)cc2-3)OCO5)cc1 ?
CDC25B CDK2 inh: 2.9; TAR Tat displ: 3.4

Results for O=C(O)CC(CC(=O)Nc1ccc(I)cc1F)c1ccccc1 (stereo not drawn) ?
CDC25B CDK2 inh: -2

What do the screens show for `CCCn1c(NCc2nc3ccccc3n2C)nc2ccccc21`?
CDC25B CDK2 inh: -1.4; TAR Tat displ: 1.4

How did COc1ccccc1N1CCN(CCN(C(=O)C2CCCCC2)c2ccccn2)CC1 do in these assays?
CDC25B CDK2 inh: -1.7

A draw from above in order of molar mass, rising.
What do the screens show for `OCCNc1ncnc2ccccc12`?
CDC25B CDK2 inh: -3; TAR Tat displ: 1.1

Results for O=C(Nc1ccc(F)cc1)N1CCSc2ncccc21 ?
TAR Tat displ: 1.9

How did CN1C(=O)c2[nH]nc(-c3ccccc3)c2C1c1cccnc1 (stereo not drawn) do in these assays?
CDC25B CDK2 inh: -0.92; TAR Tat displ: -0.24

What do the screens show for `CCCn1c(NCc2nc3ccccc3n2C)nc2ccccc21`?
CDC25B CDK2 inh: -1.4; TAR Tat displ: 1.4

How did CC(C)N1CCn2c(nc3cc(NC(=O)C4CCCCC4)ccc32)C1 do in these assays?
CDC25B CDK2 inh: -2.5; TAR Tat displ: -8.9

What do the screens show for `CCCCCOC(=O)Cn1c2ccccc2c2nc3ccccc3nc21`?
CDC25B CDK2 inh: -1.1; TAR Tat displ: 2.8

How did O=C(c1cccs1)N1CCN(C(=O)c2ccco2)c2ccccc2C1 do in these assays?
CDC25B CDK2 inh: 0.58

Results for Cc1cccc(NS(=O)(=O)c2ccc(-c3n[nH]c(C)c3C)s2)c1C ?
TAR Tat displ: 1.1

Results for C=CCOC(=O)c1sc(NC(=O)c2cc(-c3cccs3)on2)nc1C ?
CDC25B CDK2 inh: -1.6; TAR Tat displ: 0.73

How did Cc1ccc(C2CC(=O)Nc3nc(SCc4ccccc4F)[nH]c(=O)c32)c(C)c1 (stereo not drawn) do in these assays?
CDC25B CDK2 inh: -2.1; TAR Tat displ: 0.5

How did COc1ccccc1N1CCN(CCN(C(=O)C2CCCCC2)c2ccccn2)CC1 do in these assays?
CDC25B CDK2 inh: -1.7

Further records follow.
What do the screens show for `Cc1cc(N2C(=O)CC(C)CC2=O)no1`?
CDC25B CDK2 inh: -2.7

What do the screens show for `O=C1CC(C(=O)Nc2ccc(F)cc2)SC(=Nc2ccccc2)N1` (stereo not drawn)?
CDC25B CDK2 inh: -1.2; TAR Tat displ: 1.1

How did COc1ccc(CNc2nc3cc(OC)c(OC)cc3c3nc(-c4cccnc4)nn23)cc1 do in these assays?
CDC25B CDK2 inh: 1.2; TAR Tat displ: 3.4

What do the screens show for `N#CCc1ccc(NC2(C#N)CCCCC2)cc1`?
CDC25B CDK2 inh: -0.54

How did O=C(c1cc(-c2ccc(F)cc2)no1)N1CCCC1c1ccccc1F (stereo not drawn) do in these assays?
CDC25B CDK2 inh: -1.4; TAR Tat displ: 0.53

What do the screens show for `CCCSc1nc2sc3c(c2c2nnc(SCC(=O)OC)n12)CC(C)(C)OC3`?
CDC25B CDK2 inh: -0.21; TAR Tat displ: 1.3

What do the screens show for `COc1ccc2ncc3c(-c4ccc(C)cc4)c(C(=O)O)sc3c2c1`?
CDC25B CDK2 inh: -0.4; TAR Tat displ: 0.32

What do the screens show for `O=c1ccc(-c2ccccc2)nn1Cc1cc(=O)n2ccccc2n1`?
CDC25B CDK2 inh: -1.6; TAR Tat displ: 0.16

Results for O=S(=O)(Nc1ccc(Cl)c(N2CCCS2(=O)=O)c1)c1ccc2c(c1)CCCC2 ?
TAR Tat displ: -0.23

What do the screens show for `CCOC(=O)c1oc2ccc(S(=O)(=O)NC3COc4c(cccc4OC)C3)cc2c1C` (stereo not drawn)?
TAR Tat displ: 0.19

Two compounds picked at random from those above, as already listed:
What do the screens show for `CCOC(=O)c1oc2ccc(S(=O)(=O)NC3COc4c(cccc4OC)C3)cc2c1C` (stereo not drawn)?
TAR Tat displ: 0.19

What do the screens show for `O=c1ccc(-c2ccccc2)nn1Cc1cc(=O)n2ccccc2n1`?
CDC25B CDK2 inh: -1.6; TAR Tat displ: 0.16

Remaining list, next part:
How did Cc1nc(N2CCCCC2)cc(N2CCN(C(=O)C(C)C)CC2)n1 do in these assays?
CDC25B CDK2 inh: -2.7; TAR Tat displ: -0.09

How did Cc1nc2nc(C)c(Cc3ccccc3C)c(=O)n2[nH]1 do in these assays?
CDC25B CDK2 inh: -1.5; TAR Tat displ: 1.3

Results for CN1C(=O)c2ccccc2C(C(=O)NC2CCCc3ccccc32)C1c1cn(C)c2ccccc12 (stereo not drawn) ?
CDC25B CDK2 inh: -3.2

Results for CN(C)CCn1cnc2[nH]c(=O)[nH]c(=O)c21 ?
CDC25B CDK2 inh: -1.1; TAR Tat displ: -0.44

Results for O=C(c1cccc([N+](=O)[O-])c1)c1ccc2c(c1)C(=O)N(c1cccc(-c3nc4ccccc4o3)c1)C2=O ?
CDC25B CDK2 inh: -1.7

What do the screens show for `c1ccc(-c2noc(CNC3CCCCC3)n2)cc1`?
CDC25B CDK2 inh: -1.9; TAR Tat displ: 0.96

What do the screens show for `Cc1nc2ccc(S(=O)(=O)NCC(=O)NCCC3=CCCCC3)cc2s1`?
CDC25B CDK2 inh: -1.8; TAR Tat displ: -0.24

Results for Cc1cccc(C2CC(c3ccc(C)c(C)c3)Nc3nnnn32)c1 (stereo not drawn) ?
TAR Tat displ: -0.39

Results for Cc1cc(Nc2ccccc2)nc2cc(O)ccc12 ?
CDC25B CDK2 inh: -0.27; TAR Tat displ: 0.22

Results for Cc1ccc(OCc2nc(C#N)c(NCCCN(C)C)o2)cc1 ?
CDC25B CDK2 inh: 1.5; TAR Tat displ: 2.3

What do the screens show for `CCC(C)Oc1ccc(C2CC(=O)NC3=C2C(=O)CC(C)(C)C3)cc1` (stereo not drawn)?
CDC25B CDK2 inh: 0.69; TAR Tat displ: 0.74

Results for O=S(=O)(c1ccc2[nH]c3c(c2c1)CCCC3)N1CCc2ccccc2C1 ?
TAR Tat displ: 1

What do the screens show for `COc1cccc(N2CCN(Cc3nc(N)nc(Nc4ccccc4)n3)CC2)c1`?
TAR Tat displ: 1.2

What do the screens show for `Cc1cccc(NS(=O)(=O)c2ccc(-c3cnc(C4CC4)o3)cc2)c1C`?
TAR Tat displ: 1.1

How did N#Cc1nc(/C=C/c2ccc(F)cc2)oc1N1CCN(C(=O)c2ccccc2)CC1 do in these assays?
CDC25B CDK2 inh: -1.4; TAR Tat displ: -0.37

How did CC(C)c1cc(C(=O)Nc2ccccc2)nn1C1CCS(=O)(=O)C1 (stereo not drawn) do in these assays?
CDC25B CDK2 inh: -2.1; TAR Tat displ: 0.89

Results for Cn1nnnc1SCCNCc1cccc(OCc2ccccc2F)c1 ?
CDC25B CDK2 inh: -0.79; TAR Tat displ: 0.17

How did O=C(c1cccc([N+](=O)[O-])c1)c1cc2cc(Br)cc(Br)c2o1 do in these assays?
CDC25B CDK2 inh: 0

What do the screens show for `CC(C)CCCC(C)C1CCC2C3CC[C@H]4CC(=O)CC[C@]4(C)C3CC[C@]12C` (stereo partly drawn)?
TAR Tat displ: -0.98

Results for CSc1nn(CC(=O)Nc2ccccc2F)c(N)c1S(=O)(=O)c1ccccc1 ?
TAR Tat displ: -0.01

What do the screens show for `CC1CC(C)CN(C(=O)CSc2ccsc2[N+](=O)[O-])C1` (stereo not drawn)?
CDC25B CDK2 inh: -1.9; TAR Tat displ: 1.2

How did O=[N+]([O-])c1ccc(C2=CN(c3ccc(Cl)cc3)C(O)=CO2)cc1 do in these assays?
CDC25B CDK2 inh: -2.3

How did CCc1ccc(CNc2nc3ccccc3n2C)cc1 do in these assays?
CDC25B CDK2 inh: -1.4; TAR Tat displ: 1.1

Results for CC1(C)CC(=O)C2=C(C1)Nc1nc(C(F)(F)F)nn1C2c1ccccc1 (stereo not drawn) ?
CDC25B CDK2 inh: -0.05; TAR Tat displ: 0.42

How did CC(C)(C)OC(=O)NCc1n[nH]c(=S)n1Cc1ccccc1 do in these assays?
CDC25B CDK2 inh: -1.6

What do the screens show for `CCOC(=O)/C(C#N)=C/C=C(/c1ccc(Cl)cc1)N1CCOCC1`?
CDC25B CDK2 inh: -1.6

How did CC(C)c1ccc(C2CC(=O)Oc3c2c(=O)n(C)c2ccccc32)cc1 (stereo not drawn) do in these assays?
CDC25B CDK2 inh: -0.44; TAR Tat displ: -0.48

How did O=C(CCc1nnc2ccc(NCc3ccco3)nn12)NCCN1CCCC1 do in these assays?
TAR Tat displ: -2.1

Results for COc1ccc(-c2noc(CSc3nnc(C)n3-c3ccc(C)c(C)c3)n2)cc1 ?
CDC25B CDK2 inh: -1.4; TAR Tat displ: 3.1

Assay outcomes deposited in PubChem by Center for Chemical Genomics, University of Michigan.
